Source: PubChem BioAssay (National Center for Advancing Translational Sciences (NCATS))
D2 PAM = positive allosteric modulators of human D2 dopamine receptor | potentiation, % (no concentration beside the values) | 0.23% of 360,000 active | DiscoveRx D2 beta-arrestin cells, luminescence, 90 min; 100% = 57 uM dopamine signal; active = potentiation of 50% or more; inconclusive = 30% to 50%; inactive = 30% or less;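 note: compound concentration not given in the record; tested on top of an EC20 dose of dopamine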
Target sequence (P14416 whole entry, looked up): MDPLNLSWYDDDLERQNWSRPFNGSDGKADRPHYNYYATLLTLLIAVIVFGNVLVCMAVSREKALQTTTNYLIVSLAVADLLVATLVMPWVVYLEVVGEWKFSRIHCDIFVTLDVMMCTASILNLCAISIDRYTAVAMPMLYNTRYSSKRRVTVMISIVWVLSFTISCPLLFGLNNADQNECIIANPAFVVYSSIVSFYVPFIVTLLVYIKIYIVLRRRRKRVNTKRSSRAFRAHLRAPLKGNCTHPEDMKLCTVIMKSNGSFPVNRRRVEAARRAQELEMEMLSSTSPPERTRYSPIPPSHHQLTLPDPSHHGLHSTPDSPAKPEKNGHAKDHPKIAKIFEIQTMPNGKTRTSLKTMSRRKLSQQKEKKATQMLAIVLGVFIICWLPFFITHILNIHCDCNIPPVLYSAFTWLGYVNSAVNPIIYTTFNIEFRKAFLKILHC
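D2 cells co-treated with compound plus 50 nM dopamine (EC20) for 90 min at 37 deg C to detect potentiation. Beta-arrestin recruitment was read as enzyme-fragment luminescence after 1 h at ambient temperature. Full response was set by 57 uM dopamine.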
D2 ag = agonists of human D2 dopamine receptor (beta-arrestin); P14416; DiscoveRx PathHunter D2 beta-arrestin, luminescence, 90 min; 100% = 57 uM dopamine signal; activation, % (no concentration beside the values); 0.084% of 360,000 active; AID 624465; in the data active = activation above about 40%; inconclusive = about 15% to 40%; inactive = below about 15%; note: compound concentration not given in the record; the text of the record calls up to 30% inactive
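DiscoveRx PathHunter D2 beta-arrestin cells (2,100/well) attached overnight, then compound-stimulated 90 min at 37 C in HBSS/10 mM HEPES/0.1% Tween-20 buffer; beta-galactosidase complementation read by luminescence after 1 h at ambient temperature. Dopamine 57 uM final (EC100) as control.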
TRPML1 blocker = human mucolipin-1 channel inhibition | Q9GZU1 | 0.02% of 390,000 active | TRPML1-inducible cells, Ca2+ dye fluorescence, FDSS; stronger effect = lower value; inhibition of EC80 agonist-evoked calcium signal | activity change, negative = inhibition, % (test concentration not listed); in the data active means activity change below about -50%; inconclusive means about -30% to -50%; inactive means above about -30%;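 note: stimulus is agonist 54-4 at its EC80 concentration; % is set by controls: 0 for no effect and ±100 for the full control effect; compound concentration not given in the record; the text of the record puts the active cut at -80%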
Target sequence (Q9GZU1 whole entry, looked up): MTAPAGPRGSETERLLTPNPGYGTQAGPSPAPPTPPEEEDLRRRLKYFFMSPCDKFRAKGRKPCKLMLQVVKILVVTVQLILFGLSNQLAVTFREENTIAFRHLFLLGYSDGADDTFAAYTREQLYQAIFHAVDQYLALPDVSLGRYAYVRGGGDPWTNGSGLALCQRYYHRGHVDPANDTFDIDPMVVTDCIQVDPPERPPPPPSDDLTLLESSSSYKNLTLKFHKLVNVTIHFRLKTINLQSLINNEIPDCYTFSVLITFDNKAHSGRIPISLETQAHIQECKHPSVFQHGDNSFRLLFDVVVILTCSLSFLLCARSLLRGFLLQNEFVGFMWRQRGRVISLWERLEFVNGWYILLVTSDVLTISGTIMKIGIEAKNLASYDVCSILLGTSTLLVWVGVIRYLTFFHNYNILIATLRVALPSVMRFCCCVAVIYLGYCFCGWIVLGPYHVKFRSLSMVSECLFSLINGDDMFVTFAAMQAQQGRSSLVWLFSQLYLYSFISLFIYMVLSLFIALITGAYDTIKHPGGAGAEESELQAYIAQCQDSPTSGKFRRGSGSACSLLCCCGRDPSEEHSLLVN
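TRPML1-DL cells, Tet-induced overnight (~16 h, 37 °C) at 1,500 cells/well, were loaded with Ca8 no-wash dye plus quencher for 45-90 min at room temperature. Compounds were pinned during FDSS kinetic reading; agonist 54-4 at EC80 (4 uM final) then added.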
Six1-Eya2 inh = Six1/Eya2 interaction inhibition; Q15475+O00167; AlphaScreen GST-Six1/His-Eya2 binding, biochemical; stronger effect = lower value; control for the full effect not named in the record; activity change, % (no concentration beside the values); 0.56% of 360,000 active; AID 651725; in the data active = activity change below about -65%; inconclusive = about -30% to -65%; inactive = above about -30%; note: % is set by controls: 0 for no effect and ±100 for the full control effect; compound concentration not given in the record
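AlphaScreen luminescence read after one hour at 37 °C in darkness. Pin-transferred compounds met GST-Six1 and His-Eya2 protein (5X stock 250 nM/500 nM) plus glutathione donor and Ni-chelate acceptor beads (5X, 50 ug/mL).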
PINK1 expr mod = changes PINK1 expression; 0.2% of 410,000 active; Potency, µM (highest dose often 76.6 µM), without a hit: at the highest dose activation (PINK1 increase), most hits filed as activators; PINK1 immunofluorescence, high-content cytometry, 24 h; active = well fitted activation curve with a large enough effect; inconclusive = small, poorly fitted or top-dose-only effect; inactive = flat fitted curve, though single readings scatter; cell line not stated here;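 note: potency is the fitted concentration of half-maximal effect; % of control where 0% means no effect; nearly all actives have a fitted effect of over 65% in size; a mitochondrial uncoupler was the plate control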
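Stable cell line, 250 cells/well, 12 h attachment; compounds pinned at 5 concentrations, 24 h; CCCP control. Fixed with nuclear dye, primary antibodies 12 h at 10 degrees C, secondary plus cell stain; laser-scanning cytometer read.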
TRPML1 agonist = agonists of human TRPML1 channel; activation, % (test concentration not listed); TRPML1-expressing cells, Ca2+ dye fluorescence, FDSS; host cell line not named in the record; reference of the full effect not given here; 0.12% of 410,000 active; Q9GZU1; in the data active = activation above about 50%; inconclusive = about 30% to 50%; inactive = below about 30%; note: 0% is about no effect; the text of the record puts the active cut at 80%
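In this qHTS format, compounds were pin-transferred onto Ca8-dye-loaded TRPML1-DL cells induced with Tet overnight, and intracellular Ca2+ fluorescence was recorded kinetically for 110 s after a 10 s baseline. A subsequent 4uM final 54-4 (EC80) addition followed by a second 110 s read served as the antagonist phase.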
* marks the source's active call; other numbers are inactive results; ? = inconclusive; . = no result given; & = joins results of further samples; [ ] = remark or other dose.

Every second line gives: Six1-Eya2 inh | D2 PAM | PINK1 expr mod | TRPML1 agonist | TRPML1 blocker | D2 ag
COc1cc(CN2CCNC(=O)C2CC(=O)NC2CCCCC2)cc(OC)c1 (stereo not given)
    4.1 | 8.3 | 1.1% | 0.0 | -10.3 | -0.1
CCNC(=O)OCC12CC3CC(CC(C3)C1)C2
    7.9 | -18.7 | 4.1% | 0.0 | -12.7 | -1.5
C/C(=N\NC(=O)Cn1nc(C)c([N+](=O)[O-])c1C)c1ccc(O)cc1
    11.6 | -13.5 | 4.4% | -0.1 | -7.9 | -4.2
CCOC(=O)c1c(-c2ccc(C)cc2)csc1NC(=O)c1cc(=O)c2cc(C)cc(C)c2o1
    . | . | 4.1% | 1.0 | ? | .
O=C(CN1C(=O)COc2ccc(S(=O)(=O)N3CCCCCC3)cc21)NCc1ccc(F)cc1
    -1.2 | -2.7 | 1.3%&0.8% | 0.3&-0.4 | 6.6&14.7 | 2.9
CCc1cc2c(Sc3nc4ccccc4s3)ncnc2s1
    2.4 | -11.4 | 0.1% | 0.5 | 12.4 | 1.2
COc1ccc(C(O)c2ncc(-c3ccc4ccccc4c3)[nH]2)cc1F (stereo not given)
    -26.6 | -11.1 | 2.0% | -0.2 | . | -1.2
CCCCOc1ccc(CSC2=NCCN2)cc1[N+](=O)[O-]
    8.0 | -24.5 | 7.1% | 7.8 | -12.5 | -8.1
CCc1ccc(CN2CCN(C(=O)c3ccco3)CC2)cc1
    -6.4 | ? | -1.6% | 1.7 | -3.6 | 78.3*
O=C(c1ccccc1Br)N1CCN(c2ccccn2)CC1
    5.1 | 3.6 | 2.8% | 1.1 | 10.5 | -1.9
CC(=O)ONC(=Nc1ccccc1)c1nonc1N
    1.9 | -3.6 | -0.3% | 0.5 | -20.5 | 1.0
COc1ccc(/C=N/NC(=S)Nc2cc(S(=O)(=O)N3CCOCC3)ccc2N2CCOCC2)cc1O
    -10.3 | 25.7 | 6.3% | 1.8 | 3.0 | 4.5
CCN(Cc1cnn(C)c1)Cc1nc(C2(c3ccc(C)cc3)CCCC2)no1
    3.8 | -9.3 | 0.1% | 0.6 | -1.3 | 0.2
CCCOc1ccc(C(=O)Nc2ccc(N3CCOCC3)cc2N2CCOCC2)cc1OCC
    -4.8 | -6.3 | 4.9% | 0.9 | -12.4 | -0.9
Cc1noc(C)c1COc1cccc(C(=O)OCC(=O)N2CC(=O)Nc3ccccc32)c1
    -0.5 | -6.3 | 7.4% | 4.5 | 6.4 | 1.8
CCOC(=O)C1CCN(C(=O)C2CC(=O)N(c3ccc(C)cc3)C2)CC1 (stereo not given)
    2.6 | -1.7 | -5.5%[38.3 µM] | 0.1 | 3.7 | 3.0
Cn1nc(C(C)(C)C)c([N+](=O)[O-])c1C(=O)NC(C)(C)C
    6.6 | -3.9 | 1.4% | 0.0 | 7.8 | -3.3
CCOC(=O)[C@]12CCCC=C1N(Cc1ccc3c(c1)OCO3)C(=O)[C@H](CC(=O)NCC1CCCCC1)C2
    -8.7 | . | 0.8% | 12.6 | . | .
O=C(NCc1cccs1)c1nc2c(nnn2Cc2ccc(F)cc2)c(=O)[nH]1
    -0.7 | -0.9 | -4.4%[38.3 µM] | -0.6 | 2.0 | -2.5
Cc1c(C(N)=O)sc2nc(-c3ccccc3)cn12
    -4.3 | -17.0 | -1.0% | -0.8 | 3.3 | -0.2
O=S(=O)(Nc1ccncc1)c1cc(Cl)c(Cl)cc1Cl
    -1.0 | 7.4 | -0.2% | . | . | 3.6
O=C(c1ccc(Cl)c(Cl)c1)N1CCC(=O)N([C@H](COCc2ccccc2)Cc2ccccc2)CC1
    -11.0 | . | 5.8% | -0.5 | . | .
O=C(C[n+]1cc(-c2ccc(F)cc2)n2c1CCC2)N1c2ccccc2Sc2ccccc21
    -5.2 | -37.6 | 0.2% | -0.1 | -9.6 | 0.4
CCN(CC)S(=O)(=O)c1cccc(-c2nnc(SC(C)C(N)=O)n2CCc2ccccc2)c1 (stereo not given)
    6.4 | -16.7 | -1.6% | 0.1 | -1.0 | -3.3
CCc1c(C)nc2ncnn2c1Nc1ccc(C(C)=O)cc1
    -15.1 | -5.5 | -0.8% | 2.8 | 3.8 | -1.1
CS(=O)(=O)N1CCN(/[N+]([O-])=N/Oc2ccc([N+](=O)[O-])cc2[N+](=O)[O-])CC1 (tested in a mixture with another compound)
    . | . | -1.4% | 1.7 | -16.4 | .
CC(C)CC(=O)N1c2nc(C(C)C)nn2C2(CCCCC2)[C@@H]2CCCC[C@@H]21
    . | . | -0.8% | 0.7 | -12.7 | .
CCC(=O)C1CCCN(C(=O)c2ccc(OC3CCN(C(=O)c4cccnc4)CC3)cc2)C1 (stereo not given)
    5.5 | 6.9 | 3.2% | -1.0 | 21.6 | -3.1
COc1ccc(N2CCN(C(=O)CNC(=O)c3ccc4ccccc4c3)CC2)cc1
    -1.6 | 2.3 | 5.7% | 2.9 | -5.9 | 12.7
COc1ccc(N2CCN(C(=O)CCNS(=O)(=O)c3ccc4c(c3)CCC(=O)N4)CC2)cc1
    0.3 | 8.8 | -1.5%[38.3 µM] | -0.3 | -17.0 | -1.0

Two entries from above, tab-delimited.
Molecule	Six1-Eya2 inh	D2 PAM	PINK1 expr mod	TRPML1 agonist	TRPML1 blocker	D2 ag
O=C(c1ccc(Cl)c(Cl)c1)N1CCC(=O)N([C@H](COCc2ccccc2)Cc2ccccc2)CC1	-11.0	.	5.8%	-0.5	.	.
O=S(=O)(Nc1ccncc1)c1cc(Cl)c(Cl)cc1Cl	-1.0	7.4	-0.2%	.	.	3.6

The list goes on:
Every second line gives: Six1-Eya2 inh | D2 PAM | PINK1 expr mod | TRPML1 agonist | TRPML1 blocker | D2 ag
O=C(COC(=O)COc1ccc(Cl)cc1Br)NCc1cccs1
    6.4 | -6.7 | -0.6% | 2.5 | 29.2 | -1.3
CC1CCc2sc(C(=O)NNC(=O)c3ccncc3)cc2C1 (stereo not given)
    -3.0 | -11.7 | 4.2% | 0.3 | 32.8 | -3.0
CCOc1ccc(-c2nnn(CC(=O)c3ccc4c(c3)OCCO4)n2)cc1
    1.2 | -4.3 | 4.5%[38.3 µM] | 3.0 | 6.5 | -0.7
O=C(NCC1CCCO1)c1nnc(Cc2ccc(F)cc2)o1 (stereo not given)
    7.0 | -3.8 | 0.9% | -0.8 | 3.1 | -4.4
COc1cccc(-c2nnc(-c3ccc4ccccc4c3)o2)c1
    12.2 | -4.7 | 4.5% | 2.1 | 4.8 | 0.5
O=C(Nc1c2c(nn1-c1ccc(F)cc1)CS(=O)C2)c1ccc(Br)o1 (stereo not given)
    0.3 | 4.6 | 4.8% | 0.6 | 11.3 | -5.1
COc1ccc(NC(=S)NC23CN4CN(CN(C4)C2)C3)cc1
    4.9 | -14.8 | 1.1% | 0.2 | 1.5 | -0.6
CCCCNC(=O)CSc1nc2ccccc2c(=O)n1Cc1ccc2c(c1)OCO2
    3.7 | -12.0 | . | -0.5 | 8.0 | -0.9
Cc1c2n(c3ccccc13)CC/C2=N\O
    -7.2 | -7.3 | -1.2% | -0.7 | 24.0 | -3.2
O=C(NCC(c1cccs1)N1CCOCC1)c1cc(S(=O)(=O)N2CCOCC2)c(Cl)cc1Cl (stereo not given)
    -2.7 | 11.5 | -1.8% | 1.4 | -3.6 | 3.6
C=C1CCN(C(C)C(=O)OC)S(=O)(=O)c2ccccc21 (stereo not given)
    6.2 | -6.4 | -1.8% | 0.1&1.2 | 0.3&1.7 | -3.3
CCN(CC)C(=O)CN1CCN(c2ncccn2)CC1
    4.2 | -8.4 | 3.2%[38.3 µM] | 0.6 | 7.2 | 0.8
NC(=O)C1CCN(c2oc(-c3ccccc3)nc2S(=O)(=O)c2ccc(Br)cc2)CC1
    5.3 | -21.1 | 1.7% | -0.6 | -8.5 | -1.4
CC1(C)CN=c2s/c(=C\c3ccc(Cl)cc3)c(=O)n2C1
    8.0 | -22.3 | 10.8% | -0.5 | -3.6 | -8.3
Cc1nc(N2CCN(C(=O)COc3ccccc3)CC2)c2c(C)c(C)sc2n1
    -6.5 | -4.3 | -1.5% | 1.5 | 31.0 | -3.1
CCCOC(=O)c1cc(-c2ccc(C=O)o2)ccc1Cl
    -7.5 | 1.2 | 2.5% | -0.5 | -8.9 | 0.2
O=C(NC(CSCc1ccccc1)C(=O)N/N=C/c1ccc(O)cc1O)c1ccc([N+](=O)[O-])cc1 (stereo not given)
    ? | 15.6 | 0.1%[38.3 µM] | 1.4 | -11.9 | 0.1
CCOC(=O)COc1cccc2c(=O)n(CC(=O)N3CCC(C)CC3)ccc12
    25.8 | 2.4 | 0.0% | -0.7 | -0.8 | 0.5
CCn1c(SCC(=O)Nc2ccc(N3CCOCC3)cc2)nnc1-c1ccco1
    -7.9 | -5.2 | -1.1% | 0.5 | 10.1 | -1.5
CCOC(=O)CN1C(=O)c2ccccc2C1=O
    11.4 | -17.4 | 2.0% | 0.3 | 0.2 | 0.0
O=C(CSc1ccccn1)Nc1ccc(Br)cn1
    1.3 | -21.4 | 2.8% | 3.1 | -5.6 | -3.1
COc1cc(CC(=O)Nc2nccs2)cc(OC)c1OC
    -0.1 | 5.1 | -0.6% | -0.2 | 12.8 | -1.6
CCCCC(=O)N1CCN(c2nc3ccc(Cl)cc3s2)CC1
    6.7 | -13.5 | -0.3% | 2.5 | 41.7 | -2.0
O=S(=O)(Nc1cccc(-c2ccc(N3CCCCCC3)nn2)c1)c1cccc(F)c1
    -19.0 | -12.0 | 2.2%&-0.8% | 8.5&-1.1 | -1.0&-4.7 | 2.8
COc1ccc(CCNC(=O)Cn2nc([N+](=O)[O-])c(Br)c2C)cc1OC
    -13.8 | -7.9 | -1.0% | 0.0 | -1.3 | -3.8
CC(C)CCn1cnc2c(cnn2-c2ccc(Cl)cc2)c1=O
    1.0 | -13.4 | -0.7% | -0.4 | -4.3 | 2.3
CN(C)S(=O)(=O)N1CCN(CC(O)COc2ccc(C(=O)c3ccccc3)cc2)CC1 (stereo not given)
    -0.8 | -39.5 | 1.0% | -0.7 | 61.4 | -1.5
COCCCn1c(=S)[nH]c2c(sc3ccccc32)c1=O
    -3.7 | -7.9 | -1.5% | 0.0 | -8.7 | -5.1
C=CC[n+]1c(C)csc1Nc1ccc(C(=O)O)cc1
    2.6 | -3.8 | 2.2% | 0.3 | 11.0 | -0.8
COc1cccc(CN(C)CCCn2cnc3c(SC)ncnc32)c1
    -9.0 | 0.7 | 1.5% | -0.4 | -15.1 | -7.5
COc1ccc(CN(C(=O)c2cnccn2)C(C(=O)Nc2ccc(F)cc2)c2ccccc2)cc1 (stereo not given)
    -5.3 | -0.2 | -0.2% | -0.6 | -3.2 | -3.9
